DUX4 inh: inhibitors of DUX4-driven ZSCAN4 reporter expression, primary screen, 293T cells, Gaussia and Italica luciferase | activity change, negative = inhibition, % (concentration not given with the values) | 293T-iDUX4 ZSCAN4-Gaussia luciferase reporter, 24 h; stronger effect = lower value | 37,000 tested, 0.8% active;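 active means -10% or lower and over 25 points stronger than a control reporter; inconclusive means -10% or lower with a smaller gap; inactive means above -10%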;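 further: 0% = median of neutral control wells and -100% = median of positive control wells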
DUX4 inh difference: further read-out of DUX4 inh, marked with its call; Gaussia minus Italica difference, %; measured here: selective DUX4 reporter inhibition;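 worked out from the two reporters; negative = selective loss of the DUX4 reporter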
DUX4 inh control: recorded beside DUX4 inh, whose call it bears; activity change, negative = inhibition, %; measured here: Italica tet-on control reporter;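 0 = neutral control and -100 = positive control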
* hit, by the source's call.

How did COc1ccc(C[C@@H]2CCc3cnnn3COC[C@H](c3ccccc3)NC2=O)cc1 do in these assays?
DUX4 inh: 2; DUX4 inh difference: 3; DUX4 inh control: -0.1

Results for Cc1noc(C)c1NC(=O)N(C)C[C@@H]1Oc2ccc(NC(=O)CCCCCC(=O)Nc3ccccc3N)cc2CC(=O)N([C@H](C)CO)C[C@@H]1C ?
DUX4 inh: -2; DUX4 inh difference: -1; DUX4 inh control: -0.9

Results for CCCN1[C@@H]2Cn3c(cccc3=O)[C@H]1[C@@H](C(=O)N1CCCCC1)[C@@H]2CO ?
DUX4 inh: -4; DUX4 inh difference: -4; DUX4 inh control: 0.4

What do the screens show for `C/C=C/c1ccc([C@@H]2[C@H](CO)N(C(C)=O)C23CN(C(=O)NC2CCCC2)C3)cc1`?
DUX4 inh: 9; DUX4 inh difference: 4; DUX4 inh control: 5.0

What do the screens show for `CN(C)c1ccc2c(c1)[C@@H]1C[C@@H](CC(=O)O)O[C@@H](CO)[C@@H]1O2`?
DUX4 inh: 8; DUX4 inh difference: 0; DUX4 inh control: 7.9

How did O=C(C[C@H]1C[C@H]2c3cc(NC(=O)Nc4ccccc4F)ccc3O[C@H]2[C@H](CO)O1)NCC1CC1 do in these assays?
DUX4 inh: -2; DUX4 inh difference: -6; DUX4 inh control: 3.6

Results for COc1ccc(S(=O)(=O)N2C[C@H](O)COC[C@H]3O[C@@H](CC(=O)N[C@@H]4CCN(Cc5ccccc5)C4)CC[C@@H]32)cc1 ?
DUX4 inh: 3; DUX4 inh difference: -1; DUX4 inh control: 4.3

Results for CCC(=O)NC[C@H]1[C@@H](c2ccc(C3=CCCC3)cc2)[C@@H](CO)N1C(=O)CC ?
DUX4 inh: -3; DUX4 inh difference: -3; DUX4 inh control: -0.5

What do the screens show for `Cc1cccc(S(=O)(=O)N2C[C@H]3[C@@H](c4ccccc42)[C@H](CO)N3Cc2ccc3c(c2)OCO3)c1`?
DUX4 inh: 4; DUX4 inh difference: 3; DUX4 inh control: 0.3

Results for COc1cccc(S(=O)(=O)N2CCCCN3[C@H](C2)[C@@H](c2ccc(-c4cccnc4)cc2)[C@@H]3CO)c1 ?
DUX4 inh: inconclusive

Results for Cc1noc(C)c1NC(=O)N(C)C[C@@H]1Oc2ccc(NC(=O)CCN3CCOCC3)cc2CC(=O)N([C@@H](C)CO)C[C@@H]1C ?
DUX4 inh: -1; DUX4 inh difference: -4; DUX4 inh control: 3.4

Results for C[C@@H]1CN([C@@H](C)CO)C(=O)c2cc(NC(=O)Cc3ccccc3)ccc2O[C@@H](C)CCCCO[C@@H]1CN(C)C(=O)NC1CCCCC1 ?
DUX4 inh: 0; DUX4 inh difference: -1; DUX4 inh control: 1.0

What do the screens show for `C[C@H]1CN([C@@H](C)CO)S(=O)(=O)c2ccc(C#CC3CCCC3)cc2O[C@@H]1CN(C)C(=O)Nc1cc(F)ccc1F`?
DUX4 inh: -2; DUX4 inh difference: -5; DUX4 inh control: 2.2

How did C[C@@H]1CN([C@H](C)CO)C(=O)c2cc(-c3ccc(C#N)cc3)cnc2O[C@@H]1CN(C)Cc1cccnc1 do in these assays?
DUX4 inh: -4; DUX4 inh difference: -5; DUX4 inh control: 1.7

How did C[C@H]1CN([C@@H](C)CO)C(=O)CCCn2nncc2CO[C@H]1CN(C)S(=O)(=O)c1ccc2c(c1)OCCCO2 do in these assays?
DUX4 inh: 7; DUX4 inh difference: 6; DUX4 inh control: 1.5

What do the screens show for `C[C@H]1CN([C@@H](C)CO)C(=O)c2c(c3ccccc3n2C)-c2ccccc2CO[C@@H]1CN(C)Cc1ccncc1`?
DUX4 inh: 5; DUX4 inh difference: 5; DUX4 inh control: 0.5

How did C[C@@H](O)C#Cc1ccc([C@@H]2[C@H](CO)N3CCCCN(CC4CC4)C[C@@H]23)cc1 do in these assays?
DUX4 inh: 17; DUX4 inh difference: 2; DUX4 inh control: 15

How did O=C(CN1CCOCC1)NC[C@H]1N[C@H](CO)[C@@H]1c1ccc(-c2ccccc2)cc1 do in these assays?
DUX4 inh: -2; DUX4 inh difference: 2; DUX4 inh control: -4.0

What do the screens show for `CCCNC(=O)N1[C@H](CO)[C@H](c2ccccc2-c2cccc(OC)c2)[C@@H]1C#N`?
DUX4 inh: inconclusive

How did CC(C)[C@@H]1C(=O)N[C@@H](c2ccc(F)cc2)CC=CC[C@H](C)Oc2ccccc2C(=O)N1C (mixture of isomers) do in these assays?
DUX4 inh: -2; DUX4 inh difference: -4; DUX4 inh control: 1.1

Results for CCC(=O)N1C[C@@H]2[C@H](c3ccccc31)[C@H](CO)N2CC1CCCC1 ?
DUX4 inh: 1; DUX4 inh difference: 3; DUX4 inh control: -1.1

Results for O=C(NCC1CC1)[C@@H]1[C@@H](CO)[C@@H]2Cn3c(cccc3=O)[C@@H]2N1C(=O)Nc1ccccc1 ?
DUX4 inh: 3; DUX4 inh difference: 7; DUX4 inh control: -3.9

What do the screens show for `CO[C@H]1CN(C)C(=O)c2cc(NC(=O)c3ccc(F)cc3)ccc2OC[C@@H](C)N(C(=O)CC2CC2)C[C@@H]1C`?
DUX4 inh: 6; DUX4 inh difference: 3; DUX4 inh control: 3.2

How did CC=Cc1ccc2n(c1=O)C[C@H]1[C@H](CO)[C@@H](C(=O)NC3CCCC3)N(Cc3cccnc3)[C@@H]21 (mixture of isomers) do in these assays?
DUX4 inh: 6; DUX4 inh difference: 2; DUX4 inh control: 3.3

Results for CCC(=O)N1C[C@H](O)COC[C@H]2O[C@@H](CC(=O)NCc3cc(F)cc(F)c3)CC[C@@H]21 ?
DUX4 inh: 6; DUX4 inh difference: 7; DUX4 inh control: -0.5

What do the screens show for `CCCNC(=O)Nc1ccc2c(c1)OC[C@H](C)N(C(=O)CC)C[C@@H](C)[C@@H](OC)CN(C)C2=O`?
DUX4 inh: -1; DUX4 inh difference: -3; DUX4 inh control: 1.3

What do the screens show for `COc1ccc2c3c([nH]c2c1)[C@H](CO)N(Cc1ccccc1OC)CC31CCN(S(=O)(=O)c2ccccc2)CC1`?
DUX4 inh: -9; DUX4 inh difference: 0; DUX4 inh control: -9.0

What do the screens show for `C[C@H](CO)N1C[C@H](C)[C@@H](CN(C)C(=O)CCC(F)(F)F)OCc2ccccc2-c2ccccc2C1=O`?
DUX4 inh: -1; DUX4 inh difference: -12; DUX4 inh control: 11

Results for Cc1noc(C)c1NC(=O)N(C)C[C@@H]1Oc2ccc(NC(=O)Nc3ccc(C(F)(F)F)cc3)cc2C(=O)N([C@H](C)CO)C[C@H]1C ?
DUX4 inh: 1; DUX4 inh difference: -3; DUX4 inh control: 4.2

How did COc1ccc2c3c(n(C)c2c1)[C@H](CO)N(C(=O)c1ccncc1)CC31CCN(C(C)=O)CC1 do in these assays?
DUX4 inh: 21; DUX4 inh difference: 15; DUX4 inh control: 5.8

What do the screens show for `OC[C@@H]1[C@@H]2c3ccccc3NC[C@@H]2N1CC1CCOCC1`?
DUX4 inh: -5; DUX4 inh difference: -4; DUX4 inh control: -0.7

How did O=C(C[C@@H]1CC[C@@H]2[C@H](COC[C@H](O)CN2Cc2cccc(C(F)(F)F)c2)O1)NCc1ccc(F)cc1 do in these assays?
DUX4 inh: -8; DUX4 inh difference: -2; DUX4 inh control: -5.5

Results for N#C[C@@H]1[C@@H](c2ccc(C#CC3CCCC3)cc2)[C@H](CO)N1C(=O)Cc1ccccn1 ?
DUX4 inh: 3; DUX4 inh difference: 0; DUX4 inh control: 3.3

What do the screens show for `COc1ccc2c3c(n(C)c2c1)[C@H](CO)N(C(=O)Nc1ccc(F)cc1)CC31CCN(C(=O)c2ccc3c(c2)OCO3)CC1`?
DUX4 inh: inconclusive

How did O=C(C1CCCC1)N1CC2(C1)[C@@H](c1ccccc1)[C@H](CO)N2C(=O)CC1CC1 do in these assays?
DUX4 inh: 15; DUX4 inh difference: 14; DUX4 inh control: 1.3

What do the screens show for `CNC[C@H]1OCCCC[C@@H](C)Oc2ccc(NS(=O)(=O)c3cn(C)cn3)cc2C(=O)N([C@H](C)CO)C[C@H]1C`?
DUX4 inh: -2; DUX4 inh difference: -3; DUX4 inh control: 1.7

What do the screens show for `O=C(c1ccncc1)N1C[C@@H]2[C@H](c3ccccc31)[C@H](CO)N2C(=O)Nc1cccc(F)c1`?
DUX4 inh: 0; DUX4 inh difference: 2; DUX4 inh control: -2.4

Results for CCCNC(=O)N1[C@H](CNC(=O)c2ccccc2)[C@@H](c2ccccc2)[C@@H]1CO ?
DUX4 inh: 5; DUX4 inh difference: -1; DUX4 inh control: 6.0

Results for C[C@@H]1CN([C@H](C)CO)C(=O)CCCn2cc(nn2)CO[C@@H]1CN(C)Cc1cccc(O)c1 ?
DUX4 inh: -4; DUX4 inh difference: -4; DUX4 inh control: -0.1

How did CCCNC(=O)N(C)C[C@@H]1Oc2ncc(-c3ccc(C(=O)N(C)C)cc3)cc2C(=O)N([C@@H](C)CO)C[C@@H]1C do in these assays?
DUX4 inh: 3; DUX4 inh difference: -3; DUX4 inh control: 6.6

Results for COc1ccc(C#Cc2ccc([C@@H]3[C@H]4CN(C(=O)Nc5ccccc5F)CC(=O)N4[C@H]3CO)cc2)cc1 ?
DUX4 inh: inconclusive

How did COCCNC(=O)C[C@H]1C[C@H]2c3cc(NC(=O)CC4CC4)ccc3O[C@H]2[C@H](CO)O1 do in these assays?
DUX4 inh: 6; DUX4 inh difference: 2; DUX4 inh control: 4.3

What do the screens show for `CCNC(=O)C[C@@H]1CC[C@@H]2[C@H](COC[C@H](O)CN2C(=O)Nc2cccc(OC)c2)O1`?
DUX4 inh: 2; DUX4 inh difference: -5; DUX4 inh control: 6.8

What do the screens show for `CN1C(=O)c2cc(NC(=O)Cc3cccs3)ccc2OC[C@@H]2O[C@H](CC(=O)N[C@H]3CCN(Cc4ccccc4)C3)CC[C@@H]21`?
DUX4 inh: -1; DUX4 inh difference: 3; DUX4 inh control: -3.1

Results for C[C@H](CO)N1C[C@H](C)[C@@H](CN(C)Cc2ccc(C(=O)Nc3ccccc3N)cc2)OCc2cn(nn2)CCCC1=O ?
DUX4 inh: inconclusive

What do the screens show for `C[C@@H](O)C#Cc1ccc([C@@H]2[C@@H](CO)N3CCCCN(C(=O)Nc4ccccc4)C[C@H]23)cc1`?
DUX4 inh: 29; DUX4 inh difference: 13; DUX4 inh control: 16

What do the screens show for `COc1ccc(CN2C[C@@H](O)COC[C@H]3O[C@@H](CC(=O)N(C)C)CC[C@@H]32)cc1`?
DUX4 inh: 2; DUX4 inh difference: 8; DUX4 inh control: -6.3

How did CC(C)NC(=O)N1[C@@H]2CN(C(=O)c3ccccc3F)c3ccccc3[C@@H]2[C@@H]1CO do in these assays?
DUX4 inh: 2; DUX4 inh difference: 7; DUX4 inh control: -5.0

Results for CO[C@@H]1CN(C)C(=O)c2cc(NC(C)=O)ccc2OC[C@@H](C)N(S(C)(=O)=O)C[C@@H]1C ?
DUX4 inh: 2; DUX4 inh difference: -1; DUX4 inh control: 3.2

What do the screens show for `Cc1ccc(S(=O)(=O)Nc2ccc3c(c2)C(=O)N(C)[C@H]2CC[C@@H](CC(=O)NCCc4ccncc4)O[C@@H]2CO3)cc1`?
DUX4 inh: -6; DUX4 inh difference: -3; DUX4 inh control: -2.7

Results for C[C@@H]1CN([C@H](C)CO)C(=O)c2ccccc2-c2ccccc2CO[C@@H]1CN(C)Cc1cccc(C(F)(F)F)c1 ?
DUX4 inh: inconclusive

Results for Cc1noc(C)c1NC(=O)NCC[C@@H]1CC[C@H](NC(=O)Nc2cccc(Cl)c2)[C@H](CO)O1 ?
DUX4 inh: 1; DUX4 inh difference: 1; DUX4 inh control: -0.3

Results for O=C(Nc1cccc(Cl)c1)N1C[C@@H]2[C@H](c3ccccc31)[C@@H](CO)N2CC1CCOCC1 ?
DUX4 inh: -1; DUX4 inh difference: -2; DUX4 inh control: 2.0

What do the screens show for `C[C@H]1CN([C@@H](C)CO)C(=O)c2cccc(N(C)C)c2O[C@@H]1CN(C)C(=O)Nc1ccc(F)cc1`?
DUX4 inh: -5; DUX4 inh difference: -3; DUX4 inh control: -1.3

What do the screens show for `C[C@H]1CN([C@@H](C)CO)C(=O)Cc2cc(NC(=O)NC3CCCCC3)ccc2O[C@@H]1CN(C)Cc1ccc(Oc2ccccc2)cc1`?
DUX4 inh: -4; DUX4 inh difference: 1; DUX4 inh control: -5.3

Reprinted from above (7 entries):
How did COc1ccc(C[C@@H]2CCc3cnnn3COC[C@H](c3ccccc3)NC2=O)cc1 do in these assays?
DUX4 inh: 2; DUX4 inh difference: 3; DUX4 inh control: -0.1

Results for Cc1noc(C)c1NC(=O)N(C)C[C@@H]1Oc2ccc(NC(=O)CCCCCC(=O)Nc3ccccc3N)cc2CC(=O)N([C@H](C)CO)C[C@@H]1C ?
DUX4 inh: -2; DUX4 inh difference: -1; DUX4 inh control: -0.9

Results for CCCN1[C@@H]2Cn3c(cccc3=O)[C@H]1[C@@H](C(=O)N1CCCCC1)[C@@H]2CO ?
DUX4 inh: -4; DUX4 inh difference: -4; DUX4 inh control: 0.4

What do the screens show for `C/C=C/c1ccc([C@@H]2[C@H](CO)N(C(C)=O)C23CN(C(=O)NC2CCCC2)C3)cc1`?
DUX4 inh: 9; DUX4 inh difference: 4; DUX4 inh control: 5.0

What do the screens show for `CN(C)c1ccc2c(c1)[C@@H]1C[C@@H](CC(=O)O)O[C@@H](CO)[C@@H]1O2`?
DUX4 inh: 8; DUX4 inh difference: 0; DUX4 inh control: 7.9

How did O=C(C[C@H]1C[C@H]2c3cc(NC(=O)Nc4ccccc4F)ccc3O[C@H]2[C@H](CO)O1)NCC1CC1 do in these assays?
DUX4 inh: -2; DUX4 inh difference: -6; DUX4 inh control: 3.6

Results for COc1ccc(S(=O)(=O)N2C[C@H](O)COC[C@H]3O[C@@H](CC(=O)N[C@@H]4CCN(Cc5ccccc5)C4)CC[C@@H]32)cc1 ?
DUX4 inh: 3; DUX4 inh difference: -1; DUX4 inh control: 4.3

From PubChem

These rows are one share of the data. The share of hits here may be higher or lower than overall.
